Source: PubChem BioAssay (National Center for Advancing Translational Sciences (NCATS))
TRPML1 agonist = qHTS for Agonists of the Human Mucolipin Transient Receptor Potential 1 (TRPML1); actives 0.12% (n = 410,000); TRPML1-expressing cells, Ca2+ dye fluorescence, FDSS; host cell line not named in the record; reference of the full effect not given here; activation, % (no concentration beside the values); AID 624414, 2012; Mucolipin-1 (Homo sapiens), Q9GZU1; in the data active = activation above about 50%; inconclusive = about 30% to 50%; inactive = below about 30%; note: 0% is about no effect; the text of the record puts the active cut at 80%
Target sequence (Q9GZU1 whole entry, looked up): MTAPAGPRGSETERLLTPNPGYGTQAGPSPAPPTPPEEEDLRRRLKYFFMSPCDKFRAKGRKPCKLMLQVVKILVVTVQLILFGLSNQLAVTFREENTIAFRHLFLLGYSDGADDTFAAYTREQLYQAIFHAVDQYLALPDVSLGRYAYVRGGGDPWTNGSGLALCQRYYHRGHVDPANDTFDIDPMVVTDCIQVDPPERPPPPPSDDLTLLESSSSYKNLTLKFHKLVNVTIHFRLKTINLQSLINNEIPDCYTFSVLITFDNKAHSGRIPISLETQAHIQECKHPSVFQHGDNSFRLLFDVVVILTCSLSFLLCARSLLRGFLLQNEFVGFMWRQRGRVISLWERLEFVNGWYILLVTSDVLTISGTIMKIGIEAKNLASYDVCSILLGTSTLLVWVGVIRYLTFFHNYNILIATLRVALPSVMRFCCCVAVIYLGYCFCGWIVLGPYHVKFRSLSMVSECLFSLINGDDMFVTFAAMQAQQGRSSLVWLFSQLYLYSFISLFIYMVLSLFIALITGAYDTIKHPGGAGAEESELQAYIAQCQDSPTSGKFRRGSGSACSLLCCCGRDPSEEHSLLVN
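Kinetic FDSS Ca2+ read in Tet-induced TRPML1-DL cells (ABD Ca8 dye plus quencher, 45-90 min RT loading): baseline, then compound, then 110 s agonist window; EC80 agonist 54-4 at 4uM final added afterwards for a 110 s antagonist window.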
D2 agonist = Beta-Arrestin HTS for Positive Allosteric Modulators of the Human D2 Dopamine Receptor: Agonists; DiscoveRx PathHunter D2 beta-arrestin, luminescence, 90 min; 100% = 57 uM dopamine signal; activation, % (test concentration not listed); actives 0.084% (n = 360,000); AID 624465, 2012; in the data active = activation above about 40%; inconclusive = about 15% to 40%; inactive = below about 15%; note: compound concentration not given in the record; the text of the record calls up to 30% inactive
Target sequence (P14416 whole entry, looked up): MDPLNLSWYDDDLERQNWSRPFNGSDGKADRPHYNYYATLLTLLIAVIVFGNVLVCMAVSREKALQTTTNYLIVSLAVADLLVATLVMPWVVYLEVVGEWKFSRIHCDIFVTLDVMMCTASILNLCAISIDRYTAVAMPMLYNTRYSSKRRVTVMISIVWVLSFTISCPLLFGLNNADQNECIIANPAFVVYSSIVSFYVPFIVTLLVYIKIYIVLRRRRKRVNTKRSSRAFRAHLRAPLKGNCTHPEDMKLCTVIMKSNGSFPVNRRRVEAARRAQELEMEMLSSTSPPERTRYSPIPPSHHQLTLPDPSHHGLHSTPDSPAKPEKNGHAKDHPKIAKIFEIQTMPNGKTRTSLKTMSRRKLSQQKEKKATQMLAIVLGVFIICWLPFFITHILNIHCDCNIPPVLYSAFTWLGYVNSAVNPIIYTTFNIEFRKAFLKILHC
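Agonist mode: compounds alone added to overnight-plated D2 PathHunter cells for 90 min at 37 C, with 57 uM final dopamine (EC100) defining full response. Beta-arrestin recruitment detected by chemiluminescent reagent, read after 1 h at ambient temperature.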
D2 potentiator = Beta-Arrestin HTS for Positive Allosteric Modulators of the Human D2 Dopamine Receptor: Potentiators | potentiation, % (concentration not given with the values) | DiscoveRx D2 beta-arrestin cells, luminescence, 90 min; 100% = 57 uM dopamine signal | actives 0.23% (n = 360,000) | AID 624464, 2012 | D(2) dopamine receptor (Homo sapiens), P14416; active = potentiation of 50% or more; inconclusive = 30% to 50%; inactive = 30% or less;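 note: compound concentration not given in the record; tested on top of an EC20 dose of dopamine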
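PathHunter D2 cells, attached overnight at 37 deg C, received compound in DMSO plus dopamine at EC20 (50 nM final) for 90 min at 37 deg C. Beta-arrestin recruitment was read as luminescence after 1 h with detection reagent at ambient temperature.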
PINK1 expr mod = A Quantitative High throughput Screen to Identify Chemical Modulators of PINK1 Expression | actives 0.2% (n = 410,000) | AID 624263, 2012 | Potency, µM (series often up to 76.6 µM), inactives show at the highest dose activation (PINK1 increase), most hits filed as activators | PINK1 immunofluorescence, high-content cytometry, 24 h; active = well fitted activation curve with a large enough effect; inconclusive = small, poorly fitted or top-dose-only effect; inactive = flat fitted curve, though single readings scatter; cell line not stated here;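 note: potency is the fitted concentration of half-maximal effect; % of control where 0% means no effect; nearly all actives have a fitted effect of over 65% in size; a mitochondrial uncoupler was the plate control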
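PINK1 protein, normally rapidly degraded, was detected by immunofluorescence after 24 hour compound treatment of a stable cell line. Titration data (5 concentrations) came from laser-scanning cytometry, with CCCP-treated wells as controls.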
Six1-Eya2 inh = qHTS Assay for Inhibitors of the Six1/Eya2 Interaction; AlphaScreen GST-Six1/His-Eya2 binding, biochemical; hits give low values; control for the full effect not named in the record; activity change, % (test concentration not listed); actives 0.56% (n = 360,000); Homeobox protein SIX1 (Homo sapiens) + Protein phosphatase EYA2 (Homo sapiens), …; in the data active = activity change below about -65%; inconclusive = about -30% to -65%; inactive = above about -30%; note: % is set by controls: 0 for no effect and ±100 for the full control effect; compound concentration not given in the record
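Compounds are tested against tagged Six1 and Eya2 proteins bridged by glutathione donor and nickel acceptor beads; after a one-hour incubation at 37 °C without light, AlphaScreen emission is recorded.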
CtBP-E1A blk = qHTS Assay for Inhibitors of the CtBP/E1A Interaction; CtBP / adenovirus E1A interaction (AlphaScreen); AlphaScreen GST-E1A/His-CtBP binding, 1536-well; hits give low values; control for the full effect not named in the record; activity change, % (concentration not given with the values); actives 0.49% (n = 340,000); in the data active means activity change below about -65%; inconclusive means about -30% to -65%; inactive means above about -30%; note: % is set by controls: 0 for no effect and ±100 for the full control effect
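Steps: dispense buffer (Tris pH 8.0, NaCl 300 mM, TCEP 1 mM, BSA, Tween 20); add 5X protein mix (GST-E1A, His-CtBP, 125 nM each); pin 23 nL compound; 2 h at 37 °C, dark; add 5X beads (50 ug/mL); 1 h; read.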
* marks the source's active call; other numbers are inactive results; ? = inconclusive; nt = no result given; & = joins results of further samples; [ ] = remark or other dose. Outcome played no part in choosing rows. Share with any hit: about 1.3%.

Start of the listing, in advance, 9 compounds:
Assay codes: A = TRPML1 agonist; B = D2 agonist; C = D2 potentiator; D = PINK1 expr mod; E = Six1-Eya2 inh; F = CtBP-E1A blk
> CC1(c2nc3ccccc3cc2C#N)OCCO1
  A: -0.5; B: -1.2; C: -5; D: -0.6%; E: 7; F: 2

> S=C(c1cccs1)N1CCN(c2ccccc2)CC1
  A: 1.7; B: 0.1; C: -12; D: -0.9%; E: -14; F: -11

> O=C(O)C1C2CCCCC2=C2CCCCC2C1C(=O)c1ccccc1 (configuration not stated)
  A: 0.1; B: -4.5; C: -3; D: -0.2%; E: 3; F: 1

> CCn1ncc([N+](=O)[O-])c1C(=O)Nc1ccc(C)c(C)c1
  A: -0.4; B: -3.3; C: -42; D: 0.8%; E: -4; F: nt

> Cc1ccc(CNC(=O)CCNS(=O)(=O)c2cccc3nsnc23)cc1
  A: -0.7&-0.7; B: -0.2; C: -7; D: 0.2%&-1.0%; E: 8; F: 7

> Cn1nnnc1SCC(=O)Nc1ccccc1-c1ccccc1
  A: 1.0; B: 2.3; C: -16; D: -0.1%; E: 7; F: -3

> COc1ccc(NC(=O)CN(C)CC(=O)Nc2sc3c(c2C(N)=O)CCC3)cc1
  A: 0.2; B: 0.0; C: -5; D: -1.1%; E: -22; F: -8

> CNC(=S)NNC(=O)c1oc2nc(-c3ccccc3)cc(-c3ccco3)c2c1N
  A: 0.3; B: -19; C: -19; D: ?; E: -21; F: nt

> O=C(CSc1nnc(NC2CCCCC2)s1)NCc1ccco1
  A: -0.3; B: -3.8; C: -14; D: 2.3%; E: 0; F: 0

Results, from the start:
Assay codes: A = TRPML1 agonist; B = D2 agonist; C = D2 potentiator; D = PINK1 expr mod; E = Six1-Eya2 inh; F = CtBP-E1A blk
> CC1(c2nc3ccccc3cc2C#N)OCCO1
  A: -0.5; B: -1.2; C: -5; D: -0.6%; E: 7; F: 2

> S=C(c1cccs1)N1CCN(c2ccccc2)CC1
  A: 1.7; B: 0.1; C: -12; D: -0.9%; E: -14; F: -11

> O=C(O)C1C2CCCCC2=C2CCCCC2C1C(=O)c1ccccc1 (configuration not stated)
  A: 0.1; B: -4.5; C: -3; D: -0.2%; E: 3; F: 1

> CCn1ncc([N+](=O)[O-])c1C(=O)Nc1ccc(C)c(C)c1
  A: -0.4; B: -3.3; C: -42; D: 0.8%; E: -4; F: nt

> Cc1ccc(CNC(=O)CCNS(=O)(=O)c2cccc3nsnc23)cc1
  A: -0.7&-0.7; B: -0.2; C: -7; D: 0.2%&-1.0%; E: 8; F: 7

> Cn1nnnc1SCC(=O)Nc1ccccc1-c1ccccc1
  A: 1.0; B: 2.3; C: -16; D: -0.1%; E: 7; F: -3

> COc1ccc(NC(=O)CN(C)CC(=O)Nc2sc3c(c2C(N)=O)CCC3)cc1
  A: 0.2; B: 0.0; C: -5; D: -1.1%; E: -22; F: -8

> CNC(=S)NNC(=O)c1oc2nc(-c3ccccc3)cc(-c3ccco3)c2c1N
  A: 0.3; B: -19; C: -19; D: ?; E: -21; F: nt

> O=C(CSc1nnc(NC2CCCCC2)s1)NCc1ccco1
  A: -0.3; B: -3.8; C: -14; D: 2.3%; E: 0; F: 0

> CC1(C)Cc2c(sc3nc(C4CC4)n(N)c(=O)c23)CO1
  A: 0.6; B: -0.5; C: 2; D: 1.3%; E: 1; F: 0

> CC(=O)c1c(C)[nH]c(C(=O)NCc2ccccc2Cl)c1C
  A: -0.1; B: 2.5; C: -3; D: -0.5%; E: -4; F: -14

> CC(C)CNC(=O)COC(=O)c1ccc([N+](=O)[O-])cc1Cl
  A: -0.4; B: 3.2; C: 57*; D: 1.0%; E: -2; F: -3

> O=C(NCCOc1ccc(Cl)cc1)c1cccc(S(=O)(=O)N2CCCC2)c1
  A: 1.5; B: 5.4; C: 0; D: 0.7%; E: 4; F: 1

> O=C(COc1ccc(Br)cc1Cl)c1ccc[nH]1
  A: 2.1; B: -2.4; C: -4; D: 0.9%; E: 7; F: 3

> NC(=O)c1cnccc1C=Cc1ccccc1
  A: -0.2; B: -0.7; C: 3; D: 0.1%; E: -3; F: 6

> Cc1ccc(NC(=O)CCSc2nnnn2-c2ccc3c(c2)OCO3)cc1C
  A: 3.4; B: -0.1; C: -18; D: -2.1%; E: 2; F: -6

> CN1CCN(C(=O)c2ccc(OCCOc3ccccc3)cc2)CC1
  A: -0.7; B: 5.1; C: 0; D: -0.9%; E: 2; F: nt

> CNc1cccccc1=S
  A: -0.5; B: -1.2; C: -1; D: -1.1%; E: -14; F: -2

> CC(C)c1ccccc1OCCNC(=O)c1cccnc1
  A: 0.0; B: -0.8; C: -6; D: 0.2%; E: 2; F: -5

> O=C(Nc1nccs1)c1ccc2ccccc2c1
  A: 0.7; B: -1.8; C: -3; D: 1.3%; E: -9; F: -11

> COc1ccccc1CCN=C(N)NS(=O)(=O)c1ccccc1
  A: 0.0; B: -2.1; C: 0; D: 1.0%; E: 0; F: 0

> O=C(N/N=C/c1nn(-c2ccccc2)cc1-c1ccccc1)c1ccncc1
  A: -0.1; B: -0.6; C: -13; D: 6.7%; E: -11; F: 4

> Cc1cc(C=O)c(C)n1-c1sc2c(c1C(=O)O)CCCC2
  A: -0.1; B: -0.3; C: 12; D: 2.3%; E: 4; F: 2

> CCOc1ccccc1N1CC(C(=O)NCCc2ccc(S(N)(=O)=O)cc2)CC1=O (configuration not stated)
  A: -0.6; B: -3.6; C: -3; D: -2.6%; E: 0; F: 9

> CCOC(=O)c1c(S(=O)(=O)NCc2ccc(C)o2)c(C)n(C)c1C
  A: 0.7; B: -0.1; C: -4; D: 4.4%; E: -3; F: nt

Marked active in D2 potentiator, among the entries above:
Structure	D2 agonist	D2 potentiator	Six1-Eya2 inh	CtBP-E1A blk
CC(C)CNC(=O)COC(=O)c1ccc([N+](=O)[O-])cc1Cl	3.2	57*	-2	-3

Later entries:
Assay codes: A = TRPML1 agonist; B = D2 agonist; C = D2 potentiator; D = PINK1 expr mod; E = Six1-Eya2 inh; F = CtBP-E1A blk
> COC(=O)c1[nH]c2ccccc2c1Sc1ccccc1
  A: 4.8; B: 0.4; C: -11; D: 5.7%; E: -1; F: nt

> CSc1cccc(NC(=S)N(CCCN2CCCC2)Cc2cccn2Cc2ccc(Cl)cc2)c1
  A: 0.0; B: 1.8; C: -19; D: 0.3%; E: ?; F: -12

> Cc1ccccc1S(=O)(=O)NC(=O)C1(C)CCN1C(=O)Cc1ccccc1Cl (configuration not stated)
  A: -0.3; B: -4.9; C: -2; D: -1.1%; E: 10; F: -21

> Cc1c(N2C(=O)/C(=C/c3ccccc3)SC2=S)c(=O)n(-c2ccccc2)n1C
  A: -0.7; B: 0.8; C: -7; D: 2.2%; E: 2; F: -14

> CC(C)CC(N)c1csc(NC(=O)Nc2ccccc2C(C)C)n1 (configuration not stated)
  A: 1.8; B: -2.5; C: -9; D: -1.6%; E: -12; F: -10

> COCCNC(=O)C1(C)CCN(C(=O)c2nc(C)oc2C)C1 (configuration not stated)
  A: -0.8; B: -1.7; C: 0; D: 1.3%; E: 4; F: 2

> CCCCOc1ccc(S(=O)(=O)N2CCCCCC2)cc1
  A: 0.9; B: 0.7; C: -9; D: nt; E: 24; F: 4

> O=C(NCCCNC(=O)NC1CCCCC1)NC1CCCCC1
  A: -0.2; B: -0.9; C: -2; D: 2.7%[38.3 µM]; E: 0; F: 8

> O=C(Cn1cccc1C(=O)c1ccccc1)NCc1ccc(F)cc1
  A: -1.1&0.5; B: -1.8; C: -5; D: 0.3%&-0.2%; E: 1; F: 1

> C=CCn1c(Sc2ccccc2)nc2c1c(=O)[nH]c(=O)n2C
  A: -0.3; B: -2.5; C: -6; D: 0.9%; E: 4; F: 2

> CC(C)N(c1ccccc1)c1ccc(NC(=O)[C@@H]2O[C@H](CO)[C@@H](O)[C@H]2O)cc1
  A: 0.2; B: -8.1; C: -3; D: 0.1%; E: 34; F: 21

> CCc1ccc(N(C(=O)CNC(=O)c2cccs2)C(C(=O)NC(C)(C)C)c2cc(OC)c(OC)c(OC)c2)cc1 (configuration not stated)
  A: -0.1; B: -0.7; C: -3; D: 1.6%[38.3 µM]; E: 6; F: 10

> CSc1ccccc1C(=O)NCCSc1ccc(C)cc1
  A: 1.3; B: -0.5; C: -5; D: 0.3%; E: 11; F: 11

> COc1ccccc1-n1c2nc3ccccc3nc2c2c(=O)n(-c3cc(C)cc(C)c3)cnc21
  A: 0.3; B: -1.2; C: -11; D: 2.5%; E: 0; F: -14

> COc1cc(C(=O)NC2(C(F)(F)F)NC(=O)N(CCCc3ccccc3)C2=O)cc(OC)c1OC (configuration not stated)
  A: -0.4; B: -1.5; C: -7; D: -0.8%; E: -10; F: 0

> OCCN(Cc1ccccc1)Cc1cccc(Cl)c1Cl
  A: 1.6; B: -2.0; C: -5; D: 4.0%[38.3 µM]; E: 9; F: 6

> Cc1ccnc(NS(=O)(=O)c2ccc(NC(=O)CC(C)c3ccccc3)cc2)n1 (configuration not stated)
  A: -0.6; B: 0.3; C: 2; D: 1.5%; E: 0; F: 1

> O=C(Nc1ccc(Oc2ccc(C(F)(F)F)cn2)c(Cl)c1)C1CC1
  A: 3.3; B: -2.0; C: -17; D: 7.2%; E: 13; F: 0

> COc1ccc(N2C(=O)NC(NC(=O)c3ccncc3)(C(F)(F)F)C2=O)cc1 (configuration not stated)
  A: 1.6; B: -4.4; C: -14; D: 0.4%; E: 0; F: 3

> Nc1ccccc1C(=O)NCCCN1CCN(c2cccc(Cl)c2)CC1
  A: -0.4; B: -1.5; C: -26; D: 2.0%; E: -11; F: -9

> COc1ccc(C)cc1S(=O)(=O)N(C)CC(=O)N1CCN(c2ccccc2)CC1
  A: 0.1; B: -2.7; C: -2; D: 1.1%; E: -2; F: -1

> CN(CC(=O)NCc1ccccc1)Cc1ccc(Cl)cc1
  A: 2.1; B: -2.0; C: -9; D: -3.2%; E: 0; F: -1

> C(=NNc1ccc2ccccc2n1)c1ccccn1
  A: 0.5; B: -6.2; C: -17; D: 22%; E: -69*; F: -69*

> CSc1nnc(NC(=O)CCc2ccccc2)s1
  A: 0.0; B: -2.1; C: -15; D: -0.8%[38.3 µM]; E: 4; F: 5

> CCOC(=O)C1=CCC(c2ccccc2)N(S(=O)(=O)c2ccccc2[N+](=O)[O-])C1 (configuration not stated)
  A: -0.4; B: -2.7; C: -2; D: -0.3%; E: -15; F: -5

> Cc1nn(C)c(C(=O)N2CCN(C(=O)c3ccco3)CC2)c1Br
  A: 0.1; B: -2.4; C: 27; D: 4.3%; E: -2; F: -1

> CN1CCN(C(=O)CCN2C(=O)/C(=C/c3ccc(F)cc3)SC2=S)CC1
  A: 0.5; B: -9.7; C: -7; D: 7.8%; E: 0; F: -4
